Screening results: PubChem, several laboratories
HSV replic up: enhancers of HSV replication in host cells, fold increase, host cell viability | HSV replication augmentation in cells | maximum fold increase | 0.005% of 220,000 active | AID 1956, 2009;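 active = peak rise of 1.5-fold or more in the series; tested in PC3 cells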;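 note: first round at 10 µM; read as green reporter fluorescence; hits show the peak of a series up to 25 µM; 1 = signal of infected wells without compound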
PKD1 inh: inhibitors of human PKD1 kinase, biochemical, fluorescence polarization | Serine/threonine-protein kinase D1 (Homo sapiens), Q15139 | PKD1 kinase fluorescence polarization assay | inhibition, %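 (about 10 µM by stock and volumes)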 | AID 797, 2007 | 0.056% of 200,000 active;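 active = inhibition of 50% or more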;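 note: controls were vehicle for no effect and a reference inhibitor for full effect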
Target sequence (Q15139 whole entry, looked up): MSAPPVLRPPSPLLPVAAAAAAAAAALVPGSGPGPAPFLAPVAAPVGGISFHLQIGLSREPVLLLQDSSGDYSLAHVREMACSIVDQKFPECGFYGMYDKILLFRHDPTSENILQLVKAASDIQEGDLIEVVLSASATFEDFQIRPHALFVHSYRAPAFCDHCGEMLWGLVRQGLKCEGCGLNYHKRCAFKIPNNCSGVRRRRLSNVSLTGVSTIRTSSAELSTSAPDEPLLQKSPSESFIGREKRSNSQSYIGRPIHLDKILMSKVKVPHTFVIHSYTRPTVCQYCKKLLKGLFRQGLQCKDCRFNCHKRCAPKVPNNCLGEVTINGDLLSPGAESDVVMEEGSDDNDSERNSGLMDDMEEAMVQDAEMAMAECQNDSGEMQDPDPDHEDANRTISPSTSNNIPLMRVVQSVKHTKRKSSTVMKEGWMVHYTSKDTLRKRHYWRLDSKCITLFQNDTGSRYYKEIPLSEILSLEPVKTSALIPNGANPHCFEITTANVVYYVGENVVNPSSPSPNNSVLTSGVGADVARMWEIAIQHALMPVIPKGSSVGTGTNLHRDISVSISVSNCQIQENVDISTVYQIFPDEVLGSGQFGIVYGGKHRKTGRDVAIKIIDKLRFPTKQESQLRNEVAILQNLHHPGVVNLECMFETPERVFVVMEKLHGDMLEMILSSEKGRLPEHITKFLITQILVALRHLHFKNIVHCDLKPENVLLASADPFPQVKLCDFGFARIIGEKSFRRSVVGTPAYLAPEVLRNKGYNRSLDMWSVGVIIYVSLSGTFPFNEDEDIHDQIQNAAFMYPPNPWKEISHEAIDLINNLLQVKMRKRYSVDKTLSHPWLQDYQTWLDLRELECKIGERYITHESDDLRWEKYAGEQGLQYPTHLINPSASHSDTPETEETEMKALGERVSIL
INS promoter inh: inhibitors of insulin promoter-driven GFP, primary screen, imaging, TRM-6 cells (human fetal islet line), eGFP reporter, cell count; reporter expression induced with tamoxifen; inhibition, % at 2 µM; 0.9% of 130,000 active;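 active = inhibition above the mean plus 3 SD, with well images judged a real hit on visual review, cut at about 60% in these data, passing the limit was not always enough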
GALR2 ag: GALR2 receptor agonists, primary screen, cell-based | Galanin receptor type 2 (Homo sapiens), O43603 | GALR2-expressing cells, agonist activation read-out | activation, %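 (tested at 5 µM)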 | 0.48% of 140,000 active;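 active = above mean plus 3 SD of all compounds, about 5% in these data, not always enough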;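 note: 0% = vehicle buffer wells and 100% = reference agonist at full effect; tested in CHO reporter cells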
RGS16-Gao HTS: modulators of RGS16 binding to Galphao, primary screen, biochemical, human proteins, multiplexed bead flow cytometry. Regulator of G-protein signaling 16 (Homo sapiens) + Guanine nucleotide-binding protein …. bead-based flow cytometry RGS16-Galphao binding, fluorescence; actives lie on both sides. binding response (% of control), % at 10 µM. 0.38% of 220,000 active;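 active = below 25% or above 175%, edge rows of some plates excepted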;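 note: Galphao activated by GDP with aluminum fluoride before binding; 100% = wells without compound and 0% = beads without RGS; some results beyond the cut were filed as inactive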
INS promoter inh cell count: also measured in INS promoter inh; calls as there; normalized cell count, %; measured here: cell count, toxicity; reference of the scale not given here;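 cells exposed to compound for 48 h; stained nuclei by imaging scaled within each plate; lower means fewer cells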
HSV replic up primary fold: also measured in HSV replic up; calls as there; fold increase; compound at 10 µM; measured here: primary screen fold increase 10 uM; tested in PC3 cells;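 GFP signal in the first replicate; 1 = infected wells without compound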
* hit, by the source's call; i = inactive; . = not tested or not shown. Only part of the results is shown (hit frequency here may not be typical).

entry	structure	HSV replic up	HSV replic up primary fold	PKD1 inh	INS promoter inh	INS promoter inh cell count	GALR2 ag	RGS16-Gao HTS
1	CCc1c(C)nc(N)nc1N1N=C1SC	i	0.97	6.0	35.7	124.5	-0.7	100.5
2	CN1CCN(c2ccc([N+](=O)[O-])cc2Cl)CC1	i	0.92	-5.1	.	.	.	97.4
3	Fc1ccc(NC2=NCCS2)cc1Cl	i	0.79	8.3	.	.	-0.3	97.2
4	Clc1cccc(Cl)c1CN1CCN(c2ccccc2)CC1	i	1	0.9	-8.6	118.5	-1.7	92.1
5	Cc1n[nH]c(C)c1CCN	i	0.84	-6.0	14.3	168.9	1.5	104.8
6	CCOP(=O)(OCC)C(CC)N1CCOCC1 (stereo not drawn)	i	0.91	-3.6	37.5	93.2	-2.1	105.9
7	COC(=O)CC1(CC(=O)OC)C(=O)NC(=O)NC1=O	i	1.15	-2.5	.	.	-2.2	103.2
8	COc1ccc(S(=O)(=O)Cc2ccc(C(=O)N3CCC4(CC3)OCCO4)o2)cc1	i	1.06	2.0	.	.	1.3	103.8
9	O=C1NC(=O)N(c2ccccc2)C(=O)/C1=C\c1ccccc1[N+](=O)[O-]	i	0.98	.	.	.	.	94.0
10	CCOc1ccc(N=Cc2c(O)n(-c3cc(C)cc(C)c3)c(=O)[nH]c2=O)cc1	i	0.97	.	.	.	.	91.1
11	O=C(O)c1cccc2c1NC(C(=O)O)C1CC(Sc3ccccc3[N+](=O)[O-])C(Cl)C21 (stereo not drawn)	i	0.97	7.3	6.9	142.5	0.0	103.2
12	CN1C(=O)COc2c(C(=O)NC3CN4CCC3CC4)cc(Cl)cc21 (stereo not drawn)	i	0.84	.	.	.	.	100.4
13	CCCCC(=O)N/N=C/c1c(O)n(CCC2=CCCCC2)c(=O)[nH]c1=O	i	0.99	.	.	.	.	79.2
14	CCOC(=O)[C@@]1(C#N)[C@@H]2C=CC(C(N)=O)=CN2[C@@H](C(N)=O)[C@@H]1c1cccc(Cl)c1	i	1.13	-3.3	-2.6	102.8	0.6	95.2
15	O=c1[nH]c2ccccc2c(=O)n1-c1ccc(Cl)cc1Cl	i	0.91	-2.8	.	.	.	102.3
16	Cc1c2cnn(CC(=O)N3CCC4(CC3)OCCO4)c(=O)c2c(C)n1Cc1ccccc1F	i	0.94	-11.3	-83.9	108.8	-1.5	105.6
17	CCc1nc2ccccc2c(=O)n1-c1ccccc1[N+](=O)[O-]	i	0.91	-2.5	.	.	0.3	102.8
18	CN1C(=O)N(C)C(=O)C2(Cc3ccccc3N3CCOCC32)C1=O (stereo not drawn)	i	0.85	-7.3	43.2	54.1	-1.4	98.4
19	CCC12CN3CCN(CC(C3)/C1=N/NC(=O)c1ccncc1)C2	i	0.96	-6.5	35.7	101.8	.	98.4
20	Cn1c(=O)oc2cc(S(=O)(=O)N3CCC(C(=O)Nc4ccc(OC(F)(F)F)cc4)CC3)ccc21	i	1.53	-6.6	-21.9	104.0	9.9*	101.6
21	CCOC(=O)C(O)(c1ccc(NC(=O)c2ccc(Cl)c(Cl)c2)cc1)C(F)(F)F (stereo not drawn)	i	1.09	.	.	.	.	98.3
22	O=C1c2cccc3cccc(c23)C(=O)N1/N=C/c1c(O)n(-c2ccccc2)c(=O)[nH]c1=O	i	1.01	-4.2	-5.3	127.4	.	103.0
23	O=c1[nH]c(=O)n(C2CCCCC2)c(O)c1/C=N/N1CCCCC1c1cccnc1 (stereo not drawn)	i	0.88	.	.	.	.	99.2
24	c1cncc(C2Nc3cccc4cccc(c34)N2)c1	i	1.05	.	.	.	.	103.1
25	Cc1cccc(CN2CCCC(C(=O)c3ccc4c(c3)OCO4)C2)n1 (stereo not drawn)	i	0.92	-3.6	-11.1	78.4	.	87.3
26	CCN(CC)S(=O)(=O)c1ccc(C)c(NCC(=O)Nc2ccc(C#N)c(Cl)c2)c1	i	0.93	-10.9	-46.7	94.0	-0.2	85.7
27	O=C1NC(=O)N(Cc2ccco2)C(=O)/C1=C\c1cccn1CCOc1ccccc1	i	0.82	.	.	.	.	96.2
28	C(#CCN1CCOCC1)COC/C=C/c1ccccc1	i	0.96	2.7	18.4	102.3	1.2	90.8
29	O=[N+]([O-])[N-][n+]1cnn(Cc2ccc(Cl)cc2)c1	i	0.99	-4.4	-141.2	89.0	.	103.4
30	Cn1c(=O)cc(OCC(=O)N2CCN(Cc3ccc4c(c3)OCO4)CC2)c2ccccc21	i	0.75	-3.1	-26.1	94.2	-1.7	99.4
31	CCOP(=O)(OCC)C(NC(C)=O)C(Cl)(Cl)Cl (stereo not drawn)	i	0.85	-1.9	-13.9	104.8	-3.0	100.0
32	CC1(C)CC(n2[nH]c(=O)c3c2NC(=O)CSC3c2ccc(F)cc2)CCO1 (stereo not drawn)	i	1.01	-0.9	.	.	-1.1	104.8
33	COc1cc(CN2CCCC(C(=O)c3sccc3C)C2)cc(OC)c1O (stereo not drawn)	i	1	-4.6	21.7	220.1	.	102.3
34	O=c1c2ccccc2nc(N2CCCC2)n1-c1ccccc1	i	1	-1.8	.	.	-0.1	105.9
35	O=c1c2ccccc2nc(-c2ccoc2)n1-c1ccccc1	i	0.94	-8.7	28.6	117.5	-0.9	99.4
36	CC(C)OC(=O)c1c(N)n(CC2CCCO2)c2nc3ccccc3nc12 (stereo not drawn)	i	0.98	-2.3	24.3	42.1	0.1	80.9
37	COc1ccc(CC2C(=O)N(C)C(=O)N(C)C2=O)c(OC)c1	.	.	-16.8	12.3	110.0	-0.9	104.7
38	O=C(c1cc2ccccc2oc1=O)N1CCC2(CC1)OCCO2	i	1.12	-2.9	-191.7	106.7	-2.2	105.0
39	CC(C)OCCCNC(=O)c1c(N)n(Cc2cccs2)c2nc3ccccc3nc12	i	0.78	2.9	.	.	28.6*	100.9
40	CCC(C#N)(CC)P(=S)(c1ccccc1)c1ccccc1	i	1.09	-10.4	-17.1	76.4	0.4	99.7
41	CCOC(=O)c1cncn1[C@H](C)c1ccccc1	i	0.7	.	.	.	.	102.8
42	COC(=O)C(O)(c1ccc(N(C)C(=O)COc2ccccc2)cc1)C(F)(F)F (stereo not drawn)	i	0.82	7.9	-33.3	135.0	-0.6	103.5
43	CNC(=O)c1cccn(Cc2ccc(C(F)(F)F)cc2)c1=O	i	1.14	0.3	.	.	.	99.8
44	C=CCn1c(O)c(C=NCCN2CCNCC2)c(=O)[nH]c1=O	i	1.04	-8.4	14.3	130.7	-1.9	102.5
45	CCOP(=O)(CN(CC)CCNP(=O)(OCC)OCC)OCC	i	0.86	2.7	-32.6	108.8	-1.8	102.3
46	O=C(c1cc(-c2ccccc2)nc2ccccc12)N1CCC2(CC1)OCCO2	i	0.99	-7.7	12.1	113.0	-2.7	101.0
47	O=C(O)C1C2CCC(O2)C1C(=O)NC1CCCCC1 (stereo not drawn)	i	0.85	-5.0	3.3	101.7	-0.8	129.9
48	CCCCOC(=O)COc1cc(C)cc2oc(=O)c3c(c12)CCC3	i	0.98	2.1	37.0	123.0	0.3	91.0
49	CN1CCN(c2ncnc3ccc(Br)cc23)CC1	i	0.79	1.2	.	.	-0.3	101.9
50	CCCSc1nc(O)c(CC)c(=O)n1C(C)CC (stereo not drawn)	.	.	-8.5	53.5	125.8	-1.4	101.6

Some of the entries so far, field by field.
[26] CCN(CC)S(=O)(=O)c1ccc(C)c(NCC(=O)Nc2ccc(C#N)c(Cl)c2)c1
  HSV replic up: i | HSV replic up primary fold: 0.93 | PKD1 inh: -10.9 | INS promoter inh: -46.7 | INS promoter inh cell count: 94.0 | GALR2 ag: -0.2 | RGS16-Gao HTS: 85.7
[27] O=C1NC(=O)N(Cc2ccco2)C(=O)/C1=C\c1cccn1CCOc1ccccc1
  HSV replic up: i | HSV replic up primary fold: 0.82 | PKD1 inh: . | INS promoter inh: . | INS promoter inh cell count: . | GALR2 ag: . | RGS16-Gao HTS: 96.2

Further results:
entry	structure	HSV replic up	HSV replic up primary fold	PKD1 inh	INS promoter inh	INS promoter inh cell count	GALR2 ag	RGS16-Gao HTS
51	CCOC(=O)c1nc2ccccc2c(=O)n1-c1ccc(C)cc1C	i	1	0.7	.	.	-0.4	100.8
52	CC(C)=CCOc1c2occc2cc2ccc(=O)oc12	i	0.85	-16.3	4.8	128.4	-0.1	100.8
53	CCOc1ccc(-n2c(O)c(N=Nc3c(C)n(C)n(-c4ccccc4)c3=O)c(=O)[nH]c2=O)cc1	i	0.99	.	.	.	.	90.5
54	CCCCCn1c(=O)c(C(=O)Nc2c(C)n(C)n(-c3ccccc3)c2=O)c(O)c2ccccc21	i	0.93	1.2	6.7	100.0	-2.0	97.5
55	OCC[N+]12CCC(CC1)C(C(O)(c1ccccc1)c1ccccc1)C2 (stereo not drawn)	i	1.04	.	.	.	.	92.8
56	CC(=O)N1CN2CN(C(C)=O)CC(C(=O)c3ccc([N+](=O)[O-])cc3)(C2)C1	i	0.97	-0.3	-7.1	111.0	.	107.1
57	CN(C)c1ccc(/C=C2\C(=O)NC(=O)N(CCc3ccc(F)cc3)C2=O)cc1	i	0.99	.	.	.	.	95.9
58	CCOc1ccc2[nH]c(=O)c(CN(CCO)C3(c4nnnn4C4CCCCC4)CCCCC3)cc2c1	.	.	-4.3	.	.	-1.5	99.9
59	O=C(Nc1ccc2ccccc2c1)N1C[C@H]2C[C@@H](C1)c1cccc(=O)n1C2	i	1.08	.	.	.	.	105.8
60	N#CC1(c2ccccc2)CCN(C2CC(=O)N(c3ccc4c(c3)OCO4)C2=O)CC1 (stereo not drawn)	i	1.05	-4.8	.	.	.	105.3
61	COc1ccc(CCn2c(O)c(C=Nc3ccccc3F)c(=O)[nH]c2=O)cc1OC	i	1.17	.	.	.	.	97.2
62	O=C1/C(=C\c2ccc(Cl)cc2Cl)N2CCC1CC2	i	1.03	.	.	.	.	101.3
63	Cc1ccc(C(=O)Nc2ccc(Cl)cc2C(=O)c2ccccc2)cc1	i	1.12	-0.3	-113.3	72.3	-3.5	.
64	COc1ccc(Cl)cc1NC1=NCC(C)S1 (stereo not drawn)	i	0.98	0.3	-300.0	64.9	-1.1	102.3
65	CNP(=S)(NC)OCCOc1ccc(OC)cc1	i	0.81	-1.4	13.3	137.6	-1.3	111.0
66	O=C(NCc1cccnc1)C(Cl)(Cl)Cl	.	.	-0.8	8.3	171.3	0.4	104.4
67	O=P1(Nc2cccnc2)COc2ccccc2OC1	i	0.87	-5.4	.	.	-3.5	106.2
68	CCOP(=O)(OCC)C(C)(C)NC(=O)C(Cl)(Cl)Cl	i	0.96	6.8	20.9	129.6	-2.1	102.4
69	Cc1c(N=Cc2c(O)n(CCc3ccc(F)cc3)c(=O)[nH]c2=O)c(=O)n(-c2ccccc2)n1C	i	0.98	0.2	-400.0	55.2	-2.4	99.3
70	COc1ccc(Cn2c(O)c(/C=N/NC(=O)c3ccccc3)c(=O)[nH]c2=O)cc1	i	0.97	3.1	-13.3	45.1	-1.4	100.9
71	CN1C(=O)C(Cc2cccc3ccccc23)C(=O)N(C)C1=O	i	0.93	-6.7	62.5	139.2	-3.0	109.7
72	CN1CCN(c2ccc(C=O)cc2)CC1	i	0.94	-4.2	-25.0	101.5	-2.9	99.5
73	O=C(O)c1cccc(N=Nc2c(O)[nH]c(=O)[nH]c2=O)c1	i	1	.	.	.	.	102.3
74	O=P(Oc1ccccc1)(Oc1ccccc1)c1ccccc1	i	1.14	.	.	.	.	100.2
75	COc1ccc(C=C2C(=O)N(C)C(=O)N(C)C2=O)cc1COc1ccc(NC(C)=O)cc1	i	0.7	.	.	.	.	100.8
76	CCOC(=O)C1(CCOc2ccccc2)CCN(C2Cc3ccccc3C2)CC1	i	0.91	7.0	.	.	.	107.1

Taken from above:
entry 54 | RGS16-Gao HTS: 97.5
entry 59 | RGS16-Gao HTS: 105.8
